Assay outcomes deposited in PubChem BioAssay by Broad Institute.
T. gondii: Toxoplasma gondii ME49Luc growth in HeLa cells, luciferase, no IFN-y, primary screen (AID 1259421); T. gondii ME49Luc in HeLa, luciferase, 72 h, no IFN-y; active compounds read low; reference of the scale and settings of repeat entries not given here; many of its hits are not listed in these tables; activity change, negative = inhibition, %; 6,400 compounds, 9.6% hits;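 active = activity change below -70%; inconclusive = fit judged invalid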;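 also: about 20 µM from a 10 mM stock diluted 500-fold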
* marks the source's active call; other numbers are inactive results; ? = inconclusive; & = joins results of further samples; ! = not confirmed by another sample. Some of the compounds tested, so the mix of outcomes need not match the whole.

SMILES	T. gondii
CCOc1nc2cccc(C(=O)OC(C)OC(=O)OC3CCCCC3)c2n1Cc1ccc(-c2ccccc2-c2nn[nH]n2)cc1 (stereo not drawn)	-3&26
CN(C)c1cc(NC(=O)CNC(C)(C)C)c(O)c2c1C[C@H]1C[C@H]3[C@H](N(C)C)C(=O)C(C(N)=O)C(=O)[C@@]3(O)C(=O)C1C2=O (stereo partly drawn)	6
CCCCCNCC(N)=O	8
COc1ccc(CCCOC(Cn2ccnc2)c2ccc(OC)cc2)cc1 (stereo not drawn)	-72*!
c1ccc(CN2CCC3(CCc4ccccc43)CC2)cc1	5&17
CC(=O)N(OCc1ccccc1)[C@@H]1c2cc(C#N)ccc2OC(C)(C)[C@H]1O	1&11
C[C@@H]1CC[C@H]2[C@@H](C)C(O)O[C@@H]3O[C@]4(C)CC[C@@H]1[C@]32OO4 (stereo partly drawn)	-85*
OC(Cn1cncn1)(Cn1cncn1)c1ccc(F)cc1F	12&15
CC[C@H](C)[C@H](NC(=O)[C@H](Cc1ccc(O)cc1)NC(=O)[C@@H](NC(=O)[C@@H](CCCN=C(N)N)NC(=O)[C@@H](N)CC(=O)O)C(C)C)C(=O)N[C@@H](Cc1cnc[nH]1)C(=O)N1CCC[C@@H]1C(=O)N[C@H](Cc1ccccc1)C(=O)O	?
CC(C)(C#N)c1ccc(N2C(=O)OCc3cnc4ccc(-c5cnc6ccccc6c5)cc4c32)cc1	-91*
N[C@](CC1c2ccccc2Oc2ccccc21)(C(=O)O)[C@H]1C[C@@H]1C(=O)O	6
Nc1cc(F)ccc1NC(=O)/C=C/c1cnn(C/C=C/c2ccccc2)c1	10
CCC(=O)O[C@@H](OP(=O)(CCCCc1ccccc1)CC(=O)N1C[C@H](C2CCCCC2)C[C@H]1C(=O)O)C(C)C (stereo partly drawn)	12
CC(=O)Nc1cc2ccccc2oc1=O	-4
COC(=O)[C@H](Cc1ccccc1)NC(=O)[C@@H](N)CC(=O)O	1
O=C(O)C(=O)Nc1cccc(-c2nn[nH]n2)c1	5
O=C(/C=C/c1ccc(O)c(O)c1)OCCc1ccccc1	17&-6
O=C1CC[C@@H](C(=O)N2CSC[C@H]2C(=O)O)N1	3
COc1cc2c(cc1OC)[C@@H]1CC(=O)[C@@H](CC(C)C)CN1CC2	9&11
CCCCC[C@H](O)/C=C/[C@@H]1[C@H]2C/C(=C/CCCC(=O)O)O[C@H]2C[C@H]1O	14
c1ccc2oc(C3=NCCN3)cc2c1	-6&9
CC(C)C(=O)Oc1ccc(CO)cc1[C@H](CCN(C(C)C)C(C)C)c1ccccc1	2
CC(=O)N[C@H]1[C@H]([C@H](O)[C@H](O)CO)OC(C(=O)O)=C[C@@H]1N=C(N)N	11
CC1(c2ccccc2)OC(C(=O)O)=CC1=O (stereo not drawn)	16
C#CCN(C)Cc1ccccc1	-7
Next section:
SMILES	T. gondii
OC(CN1CCN(c2cccc(Cl)c2)CC1)C(c1ccccc1)c1ccccc1 (stereo not drawn)	0&9
O=C(O)CCc1nc2ccccc2[nH]1	22&8
COc1ccc(CCC(=O)c2c(O)cc(O[C@@H]3O[C@H](CO)[C@@H](O)[C@H](O)[C@H]3O[C@@H]3O[C@@H](C)[C@H](O)[C@@H](O)[C@H]3O)cc2O)cc1O	5
O=C(O)[C@H]1O[C@@H](Oc2cc3oc(-c4ccccc4)cc(=O)c3c(O)c2O)[C@H](O)[C@@H](O)[C@@H]1O	25
Cc1ccc(S(=O)(=O)Cc2nc(-c3ccc(C(=O)NCc4cccnc4)cc3)oc2C)cc1	8
CC(=O)CC(c1ccc([N+](=O)[O-])cc1)c1c(O)c2ccccc2oc1=O (stereo not drawn)	15
CCOc1ccccc1OC(c1ccccc1)C1CNCCO1 (stereo not drawn)	2
CCO[C@@H](Cc1ccc(OCCc2ccc(OS(C)(=O)=O)cc2)cc1)C(=O)O	11
CNC(=O)[C@H]1O[C@@H](n2cnc3c(NCc4cccc(I)c4)ncnc32)[C@H](O)[C@@H]1O	4
O=C(O)CCC/C=C\C[C@@H]1[C@@H](/C=C/[C@@H](O)COc2cccc(Cl)c2)[C@H](O)C[C@@H]1O	11&5&11
N#Cc1cc2[nH]c(=O)c(=O)[nH]c2cc1[N+](=O)[O-]	1&12&4
O=C(OOC(=O)c1ccccc1)c1ccccc1	4
Cc1ccc(S(=O)(=O)n2c(N)nc3ccccc32)cc1	16
CCOC(=O)[C@H](CCc1ccccc1)N[C@@H](C)C(=O)N1Cc2cc(OC)c(OC)cc2C[C@H]1C(=O)O	8
O[n+]1ccccc1[S-].O[n+]1ccccc1[S-].[Zn+2]	-67
COc1cccc(O)c1O	-4
CCCC(=O)Nc1ncnc2c1ncn2[C@@H]1O[C@@H]2COP(=O)(O)O[C@H]2[C@H]1OC(=O)CCC	9
Cc1cc(OCCCS(C)(=O)=O)cc(C)c1-c1cccc(COc2ccc3c(c2)OC[C@H]3CC(=O)O)c1	16
CCCCCOc1ccc(-c2ccc(-c3ccc(C(=O)NC4CC(O)C(O)NC(=O)C5C(O)C(C)CN5C(=O)C(C(C)O)NC(=O)C(C(O)C(O)c5ccc(O)cc5)NC(=O)C5CC(O)CN5C(=O)C(C(C)O)NC4=O)cc3)cc2)cc1 (stereo not drawn)	-6
COCCNC(=O)COc1ccc(OCCNC[C@@H](O)COc2ccccc2)cc1	5
CN(C)Cc1cccc(N=C(c2ccccc2)c2c(O)[nH]c3cc(C(=O)N(C)C)ccc23)c1	-81*
CS(=O)(=O)c1ccc(C(=O)Nc2ccc(Cl)c(-c3ccccn3)c2)c(Cl)c1	19
Cc1cc(=O)[nH]c(=S)[nH]1	-27
C=C[C@@](C)(/C=C/c1ccc(O)cc1)CCC=C(C)C	12
CNc1cc2ncnc(Nc3cccc(Br)c3)c2cc1N	-8
Next part:
SMILES	T. gondii
NC(=O)c1cccc(N)c1	7
c1ccc2c(Cc3c[nH]c4ccccc34)c[nH]c2c1	17&-5
C=CC(C)(C)c1[nH]c2ccccc2c1C1C(=O)C(=O)C(c2c[nH]c3c(CC=C(C)C)cccc23)C(=O)C1=O (stereo not drawn)	6
CCn1ccnc1CC1COc2ccccc2O1 (stereo not drawn)	6&17
CON	13
C=C1/C(=C\C=C2\CCC[C@]3(C)[C@@H]([C@H](C)CCCC(C)C)CC[C@@H]23)C[C@@H](O)C[C@@H]1O	-55
COc1cccc(CCc2ccccc2OCC[C@@H]2C[C@@H](O)CN2C)c1	-38&-6
O=C(O)[C@H](O)[C@@H](O)[C@H](O)[C@H](O)CO	-60
Cc1cccc(C)c1NC(=O)c1ccc(N)cc1	2
CCCCCCCCOc1ccccc1C(=O)Nc1ccc(C(=O)OCC[N+](C)(CC)CC)cc1	-14
[N-]=[N+]=N[C@]1(CO)O[C@@H](n2ccc(N)nc2=O)[C@@H](O)[C@@H]1O	25
CC(C)[C@H](N)C(=O)OCC(CO)OCn1cnc2c(=O)[nH]c(N)nc21 (stereo partly drawn)	9&-13
Cc1ccc(C(=O)Cn2c3c(sc2=N)CCCC3)cc1	279
OC[C@H]1O[C@H](O)C[C@@H](O)[C@@H]1O	-37
CCOC(=O)C12CC1/C(=N/O)c1ccccc1O2 (stereo not drawn)	10
CCC(=O)c1ccc(OCC(O)CN2CCN(c3ccccc3)CC2)cc1 (stereo not drawn)	10
CCNC(=O)CCC/C=C\C[C@@H]1[C@@H](/C=C/C(O)CCc2ccccc2)[C@H](O)C[C@@H]1O (stereo partly drawn)	8
CCCc1c(OCCCOc2ccc(OCC(=O)O)cc2)ccc(C(C)=O)c1O	9
CNc1cc(OC)c(C(=O)N[C@@H]2CCN(Cc3ccccc3)[C@@H]2C)cc1Cl (racemic)	26
CN([NH2+][O-])C(=O)N[C@@H]1[C@@H](O)[C@H](O)[C@@H](CO)O[C@@H]1O	-1
c1ccc(NCc2ccc(CNc3ccccn3)cc2)nc1	9
COC(=O)C1=CO[C@@H](O)[C@@H]2C(CO)=CC[C@H]12	4&-13
O=C(O)c1ccc2cc(-c3ccc(O)c(C45CC6CC(CC(C6)C4)C5)c3)ccc2c1	-56
CCCCC[C@H](CC(=O)NO)C(=O)N[C@H](C(=O)N1CCC[C@H]1CO)C(C)C	6
O=C(Nc1ccncc1)Nc1ccc(-c2nc(N3CCOCC3)nc(N3C4CCC3COC4)n2)cc1	-80*
(further entries)
SMILES	T. gondii
OC[C@@H](O)[C@@H](O)[C@H](O)[C@H](O)CO	0
COc1ccc(-n2[nH]c3c4c(ncc3c2=O)CCCCC4)cc1	8&16
O=C1Cc2cc(Cl)ccc2N1	8
O=C(Nc1ccccc1-c1cn2c(CN3CCNCC3)csc2n1)c1cnc2ccccc2n1	-11
OC1C(O)C(O)C(O)C(O)C1O (stereo not drawn)	18
Nc1nccc(Oc2ccc(NC(=O)c3c[nH]cc(-c4ccc(F)cc4)c3=O)cc2F)c1Cl	-77*
Fc1ccc(Cl)cc1-c1nc(Nc2ccncc2)c2nccnc2n1	?
COc1ccc2c(=O)c(OC)c(-c3ccccc3)oc2c1	22
COc1ccc2cccc(N3CCN(CCNC(=O)c4ccc(F)cc4)CC3)c2c1	23&41
CC(C)OC(=O)C(C(=O)OC(C)C)=C1SC=CS1	12&10
NC[C@H]1O[C@H](O[C@H]2[C@H](O)[C@@H](O[C@H]3O[C@H](CO)[C@@H](O)[C@H](N)[C@H]3O)[C@H](N)C[C@@H]2N)[C@H](N)[C@@H](O)[C@@H]1O	1
N=C(N)N	9
CCC(NC(C)C)C(O)c1ccc(O)c(O)c1 (stereo not drawn)	1&0
CO[C@H]1C[C@H](O[C@H]2[C@H](C)[C@@H](OC3O[C@H](C)C[C@H](N(C)C)[C@H]3OC(C)=O)[C@@H](C)C[C@]3(CO3)C(=O)[C@H](C)[C@@H](OC(C)=O)[C@@H](C)[C@@H](C)OC(=O)[C@@H]2C)O[C@@H](C)[C@@H]1OC(C)=O (stereo partly drawn)	5
Cn1c(=O)c2[nH]c(C3CCCC3)nc2n(C)c1=O	-3
COC(=O)c1c(C)[nH]c(C)c1C(=O)c1ccccc1Cc1ccccc1	4&3
[O-][n+]1cccc(CO)c1	0
CS(=O)(=O)Nc1cc2occ(NC=O)c(=O)c2cc1Oc1ccccc1	16
COc1cccc(OC)c1OCCNCC1COc2ccccc2O1 (stereo not drawn)	26&19
CC(C)[C@H]1C(=O)N[C@@H](CCCN=C(N)N)C(=O)NCC(=O)N[C@@H](CC(=O)O)C(=O)N[C@H](Cc2ccccc2)C(=O)N1C	33
CN(C)CC/C=C1\c2ccccc2CSc2ccccc21	23
COc1cc(O)cc([C@@H]2CC(=O)c3c(O)cc(O[C@@H]4O[C@H](CO)[C@@H](O)[C@H](O)[C@H]4O[C@@H]4O[C@@H](C)[C@H](O)[C@@H](O)[C@H]4O)cc3O2)c1	4
COc1cc(N2CCN(C)CC2)ccc1Nc1nccc(-c2cn(C)c3cnccc23)n1	?
CS(=O)(=O)CCNCc1nc(-c2ccc3ncnc(Nc4ccc(OCc5cccc(F)c5)c(Cl)c4)c3c2)cs1	30&-30
CC1(C)C2CCC1(CS(=O)(=O)O)C(=O)/C2=C\c1ccc(/C=C2/C(=O)C3(CS(=O)(=O)O)CCC2C3(C)C)cc1	12
More structures follow.
SMILES	T. gondii
O=c1cc(-c2ccc(O)cc2)oc2ccc(O)cc12	-46
CO[C@H]1CC(O[C@@H]2/C(C)=C/C[C@@H]3C[C@@H](C[C@]4(C=C[C@H](C)[C@@H](C5CCCCC5)O4)O3)OC(=O)[C@@H]3C=C(C)[C@@H](O)[C@H]4OC/C(=C\C=C\[C@@H]2C)[C@]43O)O[C@@H](C)C1O[C@H]1C[C@H](OC)[C@@H](O)[C@H](C)O1 (stereo partly drawn)	-63
CC(=O)O[C@@H]1CC2C(C)(C)C(=O)C=C[C@]2(C)C2CC[C@@]3(C)[C@H](c4ccoc4)OC(=O)[C@H]4O[C@]43[C@@]21C (stereo partly drawn)	22
O=C(O)c1c(Sc2ccccc2)c2cc(Cl)ccc2n1Cc1ccc(Cl)cc1	8&-5
N#C/C(=C/c1ccc(O)c(O)c1)C(=O)OCCc1cccs1	12
O=C(C[C@H]1NCCC[C@@H]1O)Cn1cnc2cc(Br)c(Cl)cc2c1=O	-86*
NC1(Cc2ccc(Cl)cc2)CCN(c2ncnc3[nH]ccc23)CC1	12
COc1ccc(-c2coc3cc(O)ccc3c2=O)c(OC)c1	12
NCC(O)CC(=O)O (stereo not drawn)	6
C=CCc1cc(OC)c(O)c(C(=O)NCCO)c1	9

Molecules from the list above that contain sulfur, in the order listed:
SMILES	T. gondii
O=C1CC[C@@H](C(=O)N2CSC[C@H]2C(=O)O)N1	3
Cc1ccc(S(=O)(=O)Cc2nc(-c3ccc(C(=O)NCc4cccnc4)cc3)oc2C)cc1	8
CCO[C@@H](Cc1ccc(OCCc2ccc(OS(C)(=O)=O)cc2)cc1)C(=O)O	11
Cc1ccc(S(=O)(=O)n2c(N)nc3ccccc32)cc1	16
O[n+]1ccccc1[S-].O[n+]1ccccc1[S-].[Zn+2]	-67
Cc1cc(OCCCS(C)(=O)=O)cc(C)c1-c1cccc(COc2ccc3c(c2)OC[C@H]3CC(=O)O)c1	16
CS(=O)(=O)c1ccc(C(=O)Nc2ccc(Cl)c(-c3ccccn3)c2)c(Cl)c1	19
Cc1cc(=O)[nH]c(=S)[nH]1	-27
Cc1ccc(C(=O)Cn2c3c(sc2=N)CCCC3)cc1	279
O=C(Nc1ccccc1-c1cn2c(CN3CCNCC3)csc2n1)c1cnc2ccccc2n1	-11
CC(C)OC(=O)C(C(=O)OC(C)C)=C1SC=CS1	12&10
CS(=O)(=O)Nc1cc2occ(NC=O)c(=O)c2cc1Oc1ccccc1	16
CN(C)CC/C=C1\c2ccccc2CSc2ccccc21	23
CS(=O)(=O)CCNCc1nc(-c2ccc3ncnc(Nc4ccc(OCc5cccc(F)c5)c(Cl)c4)c3c2)cs1	30&-30
CC1(C)C2CCC1(CS(=O)(=O)O)C(=O)/C2=C\c1ccc(/C=C2/C(=O)C3(CS(=O)(=O)O)CCC2C3(C)C)cc1	12
O=C(O)c1c(Sc2ccccc2)c2cc(Cl)ccc2n1Cc1ccc(Cl)cc1	8&-5
N#C/C(=C/c1ccc(O)c(O)c1)C(=O)OCCc1cccs1	12
